VCAM-1 rise: enhancers of VCAM-1 display on endothelial cells, cell-based, plate reader, pooled HUVEC, TNFa stimulus (AID 455); actives 0.2% (n = 10,000); HUVEC TNFa-induced VCAM-1 immunofluorescence, plate reader; numbers were filed only for top-ranked candidate wells; augmentation, % at 5 µM;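 active = a compound raising TNF-alpha-driven VCAM-1 surface staining, with its hit status upheld on visual or statistical review; inactive = the rest, including hits rejected on review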;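 also: 0% = TNFa with vehicle and 100% = strongest image-checked hit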
26S disassembly: blocks ATP-dependent breakdown of the yeast 26S proteasome. anti-FLAG beads, GFP-proteasome disassembly, flow cytometry. inhibition of disassembly, % (test concentration not listed). actives 0.2% (n = 24,000). AID 751;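 active = above 40%; inconclusive = likely self-fluorescent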;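 also: plate controls were ATP control with full disassembly for no effect and ATP-gamma-S intact proteasomes for full effect; higher percent means more bead fluorescence retained so stronger block of disassembly; stock transfer was 100 nL into about 10 µL; wells with too few beads may also be inconclusive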
Numbers without * were called inactive; i = inactive; u = inconclusive; x = no result given. This is a subset; the hit share may differ from the screen's.

Results follow in this order: VCAM-1 rise	26S disassembly
[1] Cc1ccccc1CS(=O)(=O)CCC(=O)N1CCN(c2ccc(N3CCOCC3)nn2)CC1
    i	-0.1
[2] CC(C)Nc1nc(N(c2ccccc2)c2ccccc2)nc(-n2ccnc2)n1
    x	2.2
[3] O=C(CSc1nc2ccccc2[nH]1)NCCN1CCCCC1
    x	-1.2
[4] CCCN(S(=O)(=O)c1ccc(OCC)cc1)S(=O)(=O)c1cccs1
    i	-2.0
[5] CCOC(=O)Cn1cnc2c(cnn2-c2ccc(Cl)cc2)c1=O
    x	1.1
[6] CC(C)CC(NC(=O)COc1ccccc1)C(=O)O (configuration not stated)
    x	-0.7
[7] CC(=O)N1CCN(C(=O)COc2ccc(Br)cc2)CC1
    i	2.3
[8] c1ccc(OCCCn2nnc(-c3ccncc3)n2)cc1
    i	1.3
[9] CCOC(=O)c1c(C)nc(-c2ccccc2)nc1NC(=O)CC
    x	-0.6
[10] COc1ccc(N(CC(=O)NCc2ccccc2)S(=O)(=O)c2c(C)noc2C)cc1
    x	0.6
[11] Fc1ccc(Cc2nnc(-c3cccs3)o2)cc1
    x	-1.5
[12] CCOC(=O)c1sc(=S)n2c1[nH]c(=O)c1ccc(C(=O)OC)cc12
    x	1.0
[13] CCOC(=O)N1CCC(NC(=O)C2CCN(c3ccc(N4CCOCC4)nn3)CC2)CC1
    x	-1.6
[14] Cc1cc(C)nc(N2CCCC(C(=O)Nc3ccc4c(c3)OCO4)C2)n1 (configuration not stated)
    i	0.7
[15] CCOC(=O)C(C)(C)Sc1nc2c(cnn2-c2ccc(C)cc2)c(=O)[nH]1
    i	1.6

A second format for part of the listing above:
10. COc1ccc(N(CC(=O)NCc2ccccc2)S(=O)(=O)c2c(C)noc2C)cc1
11. Fc1ccc(Cc2nnc(-c3cccs3)o2)cc1
12. CCOC(=O)c1sc(=S)n2c1[nH]c(=O)c1ccc(C(=O)OC)cc12

assay / compound,10,11,12
VCAM-1 rise,x,x,x
26S disassembly,0.6,-1.5,1.0

Next part
Results follow in this order: VCAM-1 rise	26S disassembly
[16] Cc1[nH]c(C)c2c(=O)n(-c3ccccc3)ncc12
    x	1.0
[17] CCC1CCCCN1C(=O)CSc1nnc(-c2ccco2)o1 (configuration not stated)
    i	2.1
[18] CN(C)c1ccc(NC(=O)Nc2cccc(Cl)c2)cc1
    i	-1.3
[19] Cc1cc(Nc2ccc(F)cc2)n2nc(C)nc2n1
    x	0.6
[20] CCN(CC)C(c1ccc(C)cc1)c1nnnn1C1CCCCC1 (configuration not stated)
    i	2.4
[21] CCS(=O)(=O)c1ccc(S(=O)(=O)CC)s1
    i	1.5
[22] Cc1ccc(C2C(=O)N(C3CCCC3)CC(=O)N2CC2COc3ccccc3O2)cc1 (configuration not stated)
    x	-0.4
[23] CCOC(=O)c1cnc2c(OC)cccc2c1N1CCN(c2ccccc2OC)CC1
    x	0.5
[24] CC(=O)c1cccc(NC(=O)N2C3CCC2CC(O)(c2cccnc2)C3)c1 (configuration not stated)
    i	0.3
[25] CCC(NC(=O)c1ccccc1NC(=O)c1ccccc1)C(=O)O (configuration not stated)
    x	2.1
[26] CC(C)(C)c1cc(NS(=O)(=O)c2ccc3c(c2)OCCO3)on1
    i	2.3
[27] Cc1c(C(=O)NCc2ccccn2)oc2ccc(S(=O)(=O)N3CCOCC3)cc12
    x	1.9
[28] Cn1c2ccc(F)cc2c2ncn(CCN3CCOCC3)c(=O)c21
    i	-0.2
[29] COc1ccc(OC)c(C(=O)CN2CCN(S(=O)(=O)c3ccc(Br)cc3)CC2)c1
    x	-0.6
[30] Cc1cc(C(=O)OCCO)c(C#N)c(N)n1
    i	0.9
[31] Cc1cccc(-n2ncc(C#N)c2N)c1
    i	-1.0
[32] CCOc1ccc(CNC(=O)CCn2c(=O)oc3ccccc32)cc1
    x	-0.3
[33] O=C(CSc1nnc(CNC(=O)c2c(F)cccc2Cl)o1)Nc1ccc2c(c1)OCCO2
    x	0.0
[34] Cc1cc(C)n2nc[n+](C)c2n1
    i	0.8
[35] O=S(=O)(c1cccc(F)c1)N1CCN(Cc2ccc3c(c2)OCO3)CC1
    x	-0.2
[36] Cc1cccc(NC(=O)CCNS(=O)(=O)c2cccc3nsnc23)c1
    x	-0.9
[37] CN(Cc1ccccc1)C(=O)c1ccccc1NC(=O)c1ccco1
    i	0.6
[38] O=C(O)C12CC3CC(C1)CC(n1cnc(Cl)n1)(C3)C2
    x	-2.7
[39] CCOc1ccc(-c2cc(CCCC(=O)NCCc3ccc(OC)c(OC)c3OC)no2)cc1
    x	u
[40] CC(=O)C1=C(O)C(=O)N(Cc2ccco2)C1c1ccc(F)cc1 (configuration not stated)
    i	-0.1
[41] CC(=O)OCCCCON1C(=O)c2ccccc2C1=O
    x	-2.0
[42] Cc1ccc(-c2nc(CS(=O)(=O)CC(=O)NC3CCCCC3C)c(C)o2)cc1 (configuration not stated)
    x	8.3
[43] COc1ccc(S(=O)(=O)NCc2ccco2)cc1-c1nnc2c3ccccc3c(C)nn12
    i	1.7
[44] Cc1cc(C)n2nc(S(=O)(=O)NCCc3ccccc3)nc2n1
    x	2.6
[45] CCCC(=O)Nc1ccc(-c2nc3cc(C)c(C)cc3o2)cc1
    x	-0.8
[46] CCN(CCCc1ccccc1)CCCc1ccccc1
    i	-0.1
[47] CCOC(=O)N1CCN(c2nc(-c3ccco3)cc(C(F)(F)F)n2)CC1
    x	-0.6
[48] CCC(C)NC(=O)Cn1cccc1C(=O)c1ccccc1 (configuration not stated)
    x	-0.1
[49] COc1ccc(/C(CC2(O)C(=O)Nc3ccccc32)=N\O)cc1 (configuration not stated)
    x	0.4
[50] CCCCCOC(=O)C1=C(C)Nc2nnnn2C1c1ccc(OC)c(OC)c1OC (configuration not stated)
    x	-0.1
[51] N#CC1=C(N)SC(N)=C(C#N)C1CCc1ccccc1
    i	8.5
[52] c1ccc2c(c1)Cn1c-2nc2ccccc21
    i	-2.5
[53] CC(C)OC(=O)c1ccc(NC(=O)C2C3CC4OC(=O)C2C4C3)cc1 (configuration not stated)
    i	-2.4
[54] CCOC(=O)C1CCCN(c2c(N3CCN(c4cccc(Cl)c4)CC3)c(=O)c2=O)C1 (configuration not stated)
    x	-0.6
[55] CCc1ccc(CNc2ccc3c(c2)ncn3C)cc1
    x	-0.4
[56] CCOc1cc(C2C(C#N)=C(N)Oc3n[nH]c(CC)c32)ccc1OCCN1CCOCC1 (configuration not stated)
    i	-1.1
[57] CCOC(=O)c1c(C)n(C)c2ccc(OCC(N)=O)cc12
    x	-0.5
[58] CCCNC(=O)C(NS(=O)(=O)c1cccc2nsnc12)c1ccccc1 (configuration not stated)
    x	-0.3
[59] COC(=O)C1C2C=CC3(CN(c4cccc(C)c4)C(=O)C13)O2 (configuration not stated)
    x	-0.5
[60] COc1ccc(C2N(C(=O)c3ccccc3)CCN2C(=O)c2ccccc2)cc1
    i	2.8
[61] COC(=O)c1ccc2c(=O)n(CCCCCC(=O)N3CCN(c4ccc(F)cc4)CC3)c(=O)[nH]c2c1
    x	-0.6
[62] O/N=C/c1ccc(OCC(O)COc2ccc(/C=N/O)cc2)cc1
    i	-0.1
[63] O=C(Nc1cccc(C(F)(F)F)c1)C1CCCN1S(=O)(=O)c1cccc2cccnc12 (configuration not stated)
    x	1.2
[64] COc1ccc(Cl)cc1NC(=O)CCN1CCN(c2ccccc2C)CC1
    i	-4.8
[65] Cc1ccc(N(CC(=O)NC2CCCCCC2)S(=O)(=O)c2c(C)nn(C)c2C)cc1
    x	-0.8
[66] CCOC(=O)CN1CC23C=CC(O2)C(C(=O)Nc2ccc(OC)cc2OC)C3C1=O (configuration not stated)
    i	0.8
[67] O=C(NCc1ccccn1)c1ccc(N2CCCC2=O)cc1
    x	0.1
[68] CSc1nc2c(c(=O)[nH]1)C(c1cccs1)C1=C(CCCC1=O)N2 (configuration not stated)
    x	-1.1
[69] Cc1ccc(S(=O)(=O)NC(CC(=O)NCc2ccco2)c2ccco2)cc1 (configuration not stated)
    x	-1.3
[70] COCCCNC(=O)c1ccc(CNS(=O)(=O)c2ccc(NC(C)=O)cc2)cc1
    x	-1.1
[71] CC1=C(C)[N+](=O)C2CCCCC2N1[O-] (configuration not stated)
    i	1.1
[72] C[C@@H]1C[C@H]2[C@@H]3CCC4=CC(=O)C=C[C@]4(C)[C@@]3(F)[C@@H](O)C[C@]2(C)[C@H]1C(=O)CO
    i	-0.4
[73] Cc1ccc(-c2nnnn2CS(=O)(=O)c2ccccc2)cc1
    i	-0.7
[74] CCOC(=O)N1CCN(C(=O)c2ccc(CS(=O)(=O)c3c(Cl)cccc3Cl)o2)CC1
    i	0.5
[75] O=C(COC(=O)C1CC2C=CC1C2)Nc1ccc2c(c1)OC(F)(F)O2 (configuration not stated)
    i	-1.4

2 records drawn at random from those above, as already listed:
Results follow in this order: VCAM-1 rise	26S disassembly
[69] Cc1ccc(S(=O)(=O)NC(CC(=O)NCc2ccco2)c2ccco2)cc1 (configuration not stated)
    x	-1.3
[63] O=C(Nc1cccc(C(F)(F)F)c1)C1CCCN1S(=O)(=O)c1cccc2cccnc12 (configuration not stated)
    x	1.2

By substructure: the entries above containing a COOH group
Results follow in this order: VCAM-1 rise	26S disassembly
[6] CC(C)CC(NC(=O)COc1ccccc1)C(=O)O (configuration not stated)
    x	-0.7
[25] CCC(NC(=O)c1ccccc1NC(=O)c1ccccc1)C(=O)O (configuration not stated)
    x	2.1
[38] O=C(O)C12CC3CC(C1)CC(n1cnc(Cl)n1)(C3)C2
    x	-2.7

Next section
Results follow in this order: VCAM-1 rise	26S disassembly
[76] COc1ccccc1-c1nnc(NC(=O)c2ccc(S(=O)(=O)N(C)Cc3ccccc3)cc2)o1
    i	19.8
[77] COc1ccc(CCNc2oc(Cc3cccc4ccccc34)nc2C#N)cc1OC
    i	3.9
[78] CCOC(=O)C(C)Sc1nc2c([nH]c3ccccc32)c(=O)n1C (configuration not stated)
    x	-0.7
[79] CCOc1ccccc1NC(=O)CSc1nnc(CNC(=O)COc2ccc(Cl)cc2)o1
    x	-2.0
[80] Cn1c(C(=O)NCCCN2CCN(c3ccccc3F)CC2)cc2c(=O)[nH]c3ccccc3c21
    x	1.4
[81] O=C(CN1C(=O)NC(Cc2ccccc2)C1=O)Nc1ccccc1 (configuration not stated)
    i	1.2
[82] Cc1ccc(C)c(N2CCN(C(=O)CC3Sc4ccccc4NC3=O)CC2)c1 (configuration not stated)
    x	-0.5
[83] COc1ccc(N(CC(=O)NCc2ccc3c(c2)OCO3)S(=O)(=O)c2c(C)nn(C)c2C)cc1
    x	-0.4
[84] COC(=O)c1cnn2c3c(c(C)nc12)CCCC3
    x	1.5
[85] COc1ccc(OC)c2[nH]c(=O)c(CCNS(=O)(=O)c3ccc(Cl)cc3)cc12
    x	0.9
[86] CCCNC(=O)c1c(N)n(-c2cc(OC)cc(OC)c2)c2nc3ccccc3nc12
    i	2.0
[87] CC(NC(=O)c1cccc(F)c1)C(c1cccs1)N1CCN(C)CC1 (configuration not stated)
    x	-1.4
[88] O=C(c1ccc(N2CCCC2=O)cc1)N1CCCCCC1
    x	0.1
[89] COC(=O)c1cc(Br)c(=O)n(CCc2ccc(F)cc2)c1
    i	0.2
[90] COc1ccc(CCNc2nc(-c3ccco3)cc(C(F)(F)F)n2)cc1OC
    x	1.9
[91] Cc1ccc(N2C(=O)c3ccc(C(=O)NCCN4CCOCC4)cc3C2=O)cc1
    x	0.0
[92] C=C(C)Cn1c(CCCNC(=O)CC)nc2ccccc21
    x	-1.6
[93] COc1ccc(-n2c(Cc3cccn3C)nnc2SCC(=O)Nc2cccc(OC)c2)cc1
    i	4.6
[94] COCCN(C(=O)c1csnn1)C(C(=O)NC1CCCCC1)c1cccs1 (configuration not stated)
    i	-0.6
[95] Cn1nccc1C(=O)NCCN1C(=O)OC(C)(C)C1(C)O (configuration not stated)
    x	0.8
[96] COc1ccc(C2CC(=O)c3c(C)nc(N4CCN(c5ccccc5)CC4)nc3C2)cc1 (configuration not stated)
    i	-1.4
[97] Cc1ccc(NC(=O)CSc2nnc(Cc3cccn3C)n2-c2ccc(F)cc2)cc1
    i	2.7
[98] CCCCOC(=O)c1ccc(NC(=O)c2cnc3n(c2=O)CCS3)cc1
    x	0.4
[99] CCN(CC)c1ccc(NC(=O)CN2C(=O)CC(C)(C)S(=O)(=O)c3ccccc32)c(C)c1
    i	0.7
[100] COc1cccc(-c2nnc(SCC(=O)Nc3cc(C)on3)o2)c1
    x	0.2
[101] CCOc1cccc2c1OC1(C)CC2NC(=O)N1c1cccc(F)c1 (configuration not stated)
    x	-1.3
[102] Cc1cccc(N2CCN(C(=O)C3CCN(c4nnc(-n5cccc5)s4)CC3)CC2C)c1 (configuration not stated)
    x	0.7
[103] Cc1[nH]c(=O)[nH]c(=O)c1S(=O)(=O)N1c2ccc(F)cc2CCC1C (configuration not stated)
    i	0.5
[104] O=c1cc(CO)oc(C(Nc2ccccn2)c2ccsc2)c1O (configuration not stated)
    x	5.1
[105] O=C(c1oc(=O)c2ccccc2c1-c1ccccc1)N1CCC(O)CC1
    x	-3.6
[106] COc1ccccc1CN1CC(C(=O)NC2CCCCC2)CC1=O (configuration not stated)
    x	0.2
[107] CCOC(=O)CC(=O)Nc1c(C)cc(C)cc1C
    i	0.8
[108] C/C(N)=C(/C#N)C(=O)COC(=O)c1cc(S(=O)(=O)N2CCCCC2)ccc1C
    i	-0.4
[109] C=CCOc1nc2c(c(=O)n(C)c(=O)n2C)n1C
    i	3.9
[110] COC(=O)c1c(C)nc2ccccc2c1C(=O)O
    x	3.4
[111] Cc1ccccc1NC(=O)C1Cc2ccccc2C(=O)O1 (configuration not stated)
    i	-1.4
[112] CN1C(=O)c2ccc(S(=O)(=O)c3ccc(C(=O)O)cc3)cc2C1=O
    x	-0.2

From PubChem
